KCNQ2 block: KCNQ2 potassium channel inhibitors, primary screen, cell-based, CHO-K1, FluxOR thallium flux, B-score (AID 2156). Potassium voltage-gated channel subfamily KQT member 2 (Rattus norvegicus), O88943. 20 min; stronger effect = lower value; only compounds with negative scores are shown here; some inactives read as strong as hits. B-score at 10 µM. 310,000 tested, 1.1% active;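 active = fluorescence ratio B-score at most minus 3 library SDs, with starting brightness B-score within 2 library SDs, cut at about -5.5 in these data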
Target sequence (O88943 whole entry, looked up): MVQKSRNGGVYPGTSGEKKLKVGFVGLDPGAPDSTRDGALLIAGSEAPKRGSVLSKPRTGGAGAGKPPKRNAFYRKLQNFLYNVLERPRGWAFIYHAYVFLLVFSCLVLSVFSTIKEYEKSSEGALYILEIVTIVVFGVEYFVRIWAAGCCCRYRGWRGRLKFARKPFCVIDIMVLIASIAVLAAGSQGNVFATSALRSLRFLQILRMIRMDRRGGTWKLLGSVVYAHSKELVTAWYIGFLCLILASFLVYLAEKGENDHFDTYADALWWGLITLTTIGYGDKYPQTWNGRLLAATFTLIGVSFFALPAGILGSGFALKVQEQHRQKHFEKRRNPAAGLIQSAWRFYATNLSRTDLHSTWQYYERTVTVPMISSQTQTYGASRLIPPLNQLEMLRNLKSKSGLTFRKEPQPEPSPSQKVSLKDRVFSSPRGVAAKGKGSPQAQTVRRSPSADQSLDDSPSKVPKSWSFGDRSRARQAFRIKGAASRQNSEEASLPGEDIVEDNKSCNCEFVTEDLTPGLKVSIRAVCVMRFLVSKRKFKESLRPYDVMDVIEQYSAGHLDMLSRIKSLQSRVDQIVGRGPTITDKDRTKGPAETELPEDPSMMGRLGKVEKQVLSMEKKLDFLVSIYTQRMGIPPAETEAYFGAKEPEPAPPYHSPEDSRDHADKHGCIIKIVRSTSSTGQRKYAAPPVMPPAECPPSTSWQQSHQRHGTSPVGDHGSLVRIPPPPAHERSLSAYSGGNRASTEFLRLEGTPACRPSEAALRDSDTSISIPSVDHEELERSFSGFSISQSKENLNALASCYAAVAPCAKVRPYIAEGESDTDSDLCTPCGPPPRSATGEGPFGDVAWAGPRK
KCNQ2 block baseline: further read-out of KCNQ2 block, marked with its call; B-score; measured here: initial fluorescence intensity artifact check;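 brightness before thallium and not channel activity; 0 = typical well and far values either way flag optical interference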
Numbers without * were called inactive; i = inactive. The list is partial; the hit share may differ from the screen's.

A first look:
Structure | KCNQ2 block baseline | KCNQ2 block
CCCCN(C(=O)c1cc(S(=O)(=O)N2CCCCCC2)ccc1OC)c1ccccc1 | -0.27 | i
COc1ccccc1Oc1ccc2c(c1)C(=O)N(c1ccc(C)cc1)C2=O | 1.69 | i
COc1ccc(NC(=O)COc2ccc(C(=O)OCC(=O)N(C)C3CCS(=O)(=O)C3)cc2OC)cc1 (stereo not drawn) | 0.57 | i
CC(C)c1ccc(NC(=O)C2C3C=CC4(CN(CCCN5CCOCC5)C(=O)C24)O3)cc1 (stereo not drawn) | 0.06 | i
COC(=O)Cc1nc2ccccc2[nH]1 | -0.43 | i
Cc1ccc(C)c(N2CCN(C(=O)CCCOc3cc(=O)n(C)c4ccccc34)CC2)c1 | -1.77* | -6.43*

The list itself, previewed entries included:
Structure | KCNQ2 block baseline | KCNQ2 block
CCCCN(C(=O)c1cc(S(=O)(=O)N2CCCCCC2)ccc1OC)c1ccccc1 | -0.27 | i
COc1ccccc1Oc1ccc2c(c1)C(=O)N(c1ccc(C)cc1)C2=O | 1.69 | i
COc1ccc(NC(=O)COc2ccc(C(=O)OCC(=O)N(C)C3CCS(=O)(=O)C3)cc2OC)cc1 (stereo not drawn) | 0.57 | i
CC(C)c1ccc(NC(=O)C2C3C=CC4(CN(CCCN5CCOCC5)C(=O)C24)O3)cc1 (stereo not drawn) | 0.06 | i
COC(=O)Cc1nc2ccccc2[nH]1 | -0.43 | i
Cc1ccc(C)c(N2CCN(C(=O)CCCOc3cc(=O)n(C)c4ccccc34)CC2)c1 | -1.77* | -6.43*
CCN(CC(=O)Nc1c(F)cccc1F)C(=O)C1Cc2ccccc2CN1S(=O)(=O)CC (stereo not drawn) | -0.24 | i
O=c1c2c(nc(NCCO)n1CC1CCCCC1)-c1ccccc1CC21CCCC1 | -1.01* | -8.78*
CCOC(=O)c1sc(NC(=O)CN(CC(C)C)CC(C)C)c(C(=O)OCC)c1C | 1.48 | i
O=C(NCC1CCCO1)c1ccc(F)c2ccccc12 (stereo not drawn) | 0.23 | i
O=C(NCc1ccccn1)C1CCCN(Cc2cnn(-c3ccccc3)c2-n2cccc2)C1 (stereo not drawn) | -0.25 | i
O=C(COC(=O)CNC(=O)c1ccccc1F)NCCC1=CCCCC1 | 0.43 | i
O=c1ccc2cc(S(=O)(=O)N3CCN(c4ccccc4F)CC3)ccc2[nH]1 | -0.1 | i
C/C(=N/NC(=O)c1ccc2c(c1)OCO2)c1ccc(NC(=O)C(F)(F)F)cc1 | 0.15 | i
CC/C(=N\NC(=O)c1ccncc1)C12CC3CC(CC(C3)C1)C2 | 0.01 | i
O=C(Nc1ccc(O)c(-c2nc3ccccc3o2)c1)C1(c2ccc([N+](=O)[O-])cc2)CCCC1 | 0.17 | i
O=C(O)CC1NC(=O)N(c2ccc(Cl)cc2)C1=O (stereo not drawn) | -1.16 | i
CN(CCOc1ccccc1)C(=O)c1cc([N+](=O)[O-])ccc1N1CCOCC1 | -1.97 | i
CC1CN(C(=O)COC(=O)CSc2ccc(C(N)=O)cc2[N+](=O)[O-])CC(C)O1 (stereo not drawn) | -0.94 | i
O=C(c1cc(-c2cccs2)on1)N1CCN(C(c2ccccc2)c2ccccc2)CC1 | 0.58 | i
O=Cc1ccc(N2CCCC2)o1 | -0.76 | i
Cc1ccc(S(=O)(=O)Oc2ccc(/C=C3\N=C(c4cccc(C)c4)OC3=O)cc2)cc1 | -0.18 | i
COc1cc(C(=O)NCc2nnc(SCC(=O)Nc3nccs3)o2)cc(OC)c1OC | 0.01 | i
COC(=O)c1ccccc1NC(=O)c1cccnc1 | -1.27 | i
COc1ccc([C@@H]2[C@@H]3C(=O)N(C(C)(C)C)C(=O)[C@@H]3[C@]3(Cc4ccccc4)C(=O)N(c4ccc(C)cc4)C(=O)N23)cc1 | 1.52 | i
O=C(/C=C/c1ccc(F)cc1)Nc1ccc2[nH]c(=O)[nH]c2c1 | 0.19 | i
O=C(Cn1c(=O)oc2ccccc21)N(Cc1ccccc1)C1CCS(=O)(=O)C1 (stereo not drawn) | 1.51 | i
O=C(NC1CCSc2ccccc21)c1ccccc1Br (stereo not drawn) | 1.84 | i
Cc1ccc(NC(=O)COC(=O)c2cc(Cl)ccc2[N+](=O)[O-])cc1 | 0.65 | i
CCNc1nc2c(c(=O)n(Cc3ccccc3)c(=O)n2C)n1Cc1ccccc1 | -1.16 | i
COc1ccccc1N(CC(=O)Nc1ccc(S(=O)(=O)N2CCCCC2)cc1)S(C)(=O)=O | 0.58 | i
O=C(CCC(=O)c1cccs1)Nc1nc2ccccc2s1 | -1.73 | i
COc1cccc(N2CC(C(=O)Nc3nnc(SCCC4OCCO4)s3)CC2=O)c1 (stereo not drawn) | -0.99 | i
Cc1cccc(C)c1NC(=O)CCCn1nc(C)c2c(C)n(-c3ccccc3)nc2c1=O | 0.23 | i
CC(=O)c1cc2c(cc1NC(=O)c1ccc(C)cc1)OCCO2 | -0.49 | i
O=C(N/C(=C/C=C/c1ccccc1)C(=O)N1CCOCC1)c1ccccc1Br | -0.67 | i
Cc1ccc(C)c(OCC(=O)N2CCN(C(=O)c3ccco3)CC2)c1 | 0.43 | i
Cc1[nH]c2ccccc2c(=O)c1CN(C)Cc1ccccc1 | -0.1 | i
CC(=O)SCC[N+](C)(C)C | -0.31 | i
Cc1nnc(Sc2nc3ccccc3o2)c2ccccc12 | -0.32 | i
Cc1ccc(Cl)cc1N1CCN(C(=O)Cc2c(C(=O)O)[nH]c3ccccc23)CC1 | 0.26 | i
COc1cc(CN/C(C)=C(\C#N)C(N)=O)cc(OC)c1OC | -0.48 | i
O=C(Nc1ccc(N2CCOCC2)cc1N1CCOCC1)c1ncoc1-c1cccc(F)c1 | -0.77 | i
CCOc1ncc(S(=O)(=O)N2CCN(CC)CC2)cc1C(=O)O | 0.43 | i
COc1ccc(C2/C(=C(/O)c3ccccc3)C(=O)C(=O)N2CC(C)O)c(OC)c1 (stereo not drawn) | 0.05 | i
Cc1ccc(CNC(=O)CN2C(=O)CSc3ccc(S(=O)(=O)N4CCCCC4)cc32)cc1 | 1 | i
O=S(=O)(NCc1ccccc1)c1cccc2nsnc12 | -1.53 | i
Cc1ccc(Cl)cc1NC(=O)CSc1nnc(C)n1-c1ccccc1 | 0.19 | i
N#C/C(=C/c1ccc(N2CCCCC2)o1)c1cccc(F)c1 | 5.18 | i
CCOc1ccccc1NC(=O)CN(C)S(=O)(=O)c1ccc2[nH]c(=O)oc2c1 | 0.15 | i
NC(=O)c1ccc(NC(=O)COC(=O)/C=C/c2ccc3c(c2)OCO3)cc1 | 1.05 | i
Cc1cc(N2C(=O)C(O)=C(C(=O)c3cc4ccccc4o3)C2c2ccc(Br)cc2)no1 (stereo not drawn) | 2.25 | i
CC(C)(C)OC(=O)NNC(=O)C12CC3CC(CC(C3)C1)C2 | -0.49 | i
COc1ccc(Cl)cc1NS(=O)(=O)c1cccc(C(=O)NCC(c2ccco2)N(C)C)c1 (stereo not drawn) | 1.27 | i
CCCCNC(=O)c1cc2n(n1)C(C(F)(F)F)CC(c1ccccc1)N2 (stereo not drawn) | -0.95 | i
CN1CCN(c2ccc(Cl)cc2NC(=O)CN2C(=O)NC(C)(c3ccccc3)C2=O)CC1 (stereo not drawn) | 1.39 | i
O=C(/C=C/c1ccccc1)N1CCC(c2ccccc2)C1 (stereo not drawn) | 0.66 | i
COc1ccccc1CNC(=O)c1nn(C)c2c1CS(=O)(=O)c1ccccc1-2 | 0.29 | i
CC(C)CCOCc1nc2sc3c(c2c(=O)[nH]1)CCC(C)C3 (stereo not drawn) | 0.44 | i
O=C(CCS(=O)(=O)Cc1ccccc1)N1CCN(c2ccc([N+](=O)[O-])cc2)CC1 | 2.38 | i

Part of the list above, field by field:
CC(C)(C)OC(=O)NNC(=O)C12CC3CC(CC(C3)C1)C2
  KCNQ2 block baseline = -0.49
  KCNQ2 block = i

COc1ccc(Cl)cc1NS(=O)(=O)c1cccc(C(=O)NCC(c2ccco2)N(C)C)c1 (stereo not drawn)
  KCNQ2 block baseline = 1.27
  KCNQ2 block = i

Next part
Structure | KCNQ2 block baseline | KCNQ2 block
O=C(Nc1ccc(Br)cc1)N1CCc2ccccc2C1 | -0.19 | i
COc1cccc(CC(=O)OCC(=O)N2CCN(c3ccc(F)cc3)CC2)c1 | 1.29 | i
COc1ccc(Br)cc1C(C[N+](=O)[O-])c1c(N)n(C)c(=O)n(C)c1=O (stereo not drawn) | 0.71 | i
Nc1ccc(NC(=O)c2cccs2)c(Cl)c1 | -2.79 | i
Cc1c(NC(=O)COC(=O)CCC(=O)c2ccc(Cl)cc2)c(=O)n(-c2ccccc2)n1C | 1.47 | i
COc1cccc(C2c3[nH]c4ccccc4c3CCN2C(=O)c2ccccc2F)c1OC (stereo not drawn) | -2.22 | i
Cc1ccc(OCCSc2nc3ccccc3n2CCC(=O)O)cc1 | 0.02 | i
Cc1c(Cl)cccc1NC(=S)N(Cc1cccs1)C1CCCC1 | -1.04 | i
Cc1ccc(NC2=NCC(=O)N2C2CCCC2)cc1 | 2.7 | i
O=C(CCCc1cccs1)N1CCN(S(=O)(=O)c2ccccc2Br)CC1 | 0.61 | i
CCOC(=O)c1nc(C)n(-c2cc(Cl)ccc2Cl)n1 | 0.06 | i
Cc1nc(NCCCn2ccnc2)c2ccccc2n1 | 2.16 | i
COc1ccc(S(=O)(=O)N(CC(=O)N2CCN(C)CC2)c2ccc(C)cc2)cc1OC | -1.23 | i
COc1cc(C(=O)Nc2ccc(-c3nnc(-c4ccco4)o3)cc2)cc(OC)c1OC | 1.45 | i
CCCc1ccc(OCc2ccc(C(=O)N/N=C/c3cccc([N+](=O)[O-])c3)o2)c(OC)c1 | 1.52 | i
COc1ccc(C(C(=O)NC2CCCCC2)N(C(=O)CCl)c2cccc(Cl)c2)cc1 (stereo not drawn) | 0.91 | i
O=C(Nc1nccs1)c1cc(N2CCOCC2)nc2ccccc12 | -1.57 | i
COc1ccc(OC)c(-c2nc(C(=O)NC3CCN(Cc4ccccc4)CC3)cc3c2[nH]c2ccccc23)c1 | 0.03 | i
COc1ccc(C2CC(c3ccccc3)Nc3nc(N)nn32)cc1 (stereo not drawn) | -1.72 | i
Cc1ccc(-c2csc(N(C)C(=O)c3c(C)nn(-c4ccccc4)c3Cl)n2)cc1 | -2.51 | i
Nc1n[nH]c(N)c1N=Nc1ccc2c(c1)OCO2 | -0.02 | i
CCCCN1C(=O)N(c2ccccc2Cl)C(C)(O)CC1(C)C (stereo not drawn) | -1.09 | i
CSc1ccc(S(=O)(=O)Nc2ccc3c(c2)OCCO3)cc1 | 2.15 | i
O=C(CN1CCN(c2ccc(F)cc2)CC1)NCC1CCCO1 (stereo not drawn) | 0.37 | i
Cc1ccc(NC(=O)N2C3CCCC2CC(NC(=O)C(C)(C)C)C3)cc1 (stereo not drawn) | 1.15 | i
COc1nsnc1NS(=O)(=O)c1ccc(NC(=S)NC(=O)c2cccnc2)cc1 | 0.12 | i
Cc1nc([N+](=O)[O-])c(Br)n1CC(=O)c1ccc2ccccc2c1 | -1.44 | i
COCCNC(=O)c1ccc(CS(=O)(=O)c2ccccc2)o1 | -0.05 | i
CCN=C1S/C(=C\c2cn(CC(=O)NCc3ccco3)c3ccccc23)C(=O)N1CC | -1.55 | i
CCOc1ccccc1NC(=O)COC(=O)C1CC(=O)N(c2c(C)cccc2C)C1 (stereo not drawn) | 1.24 | i
CCOc1ccc(Nc2nc(NCC(=O)O)nc(N)c2[N+](=O)[O-])cc1 | 0.4 | i
COc1ccc(Cl)cc1NC(=O)CN(C)C(=O)c1cc2ccccc2cc1OC | -0.1 | i
O=S(=O)(NCc1cccnc1)c1ccccc1 | 1.35 | i
Cc1csc(NC(=O)CSc2ccc([N+](=O)[O-])cn2)n1 | -0.7 | i
Cc1cc(C)n(CC(O)Cn2ccc3ccccc32)n1 (stereo not drawn) | 0.42 | i
O=C1CC(/C=C/c2ccc(Cl)cc2)=Nc2ccccc2N1 | 0.29 | i
O=C(c1ccc2c(c1)OCO2)N1CCN(c2ccc(F)cc2)CC1 | -0.11 | i
COc1ccc(-n2nnnc2CNC(=O)c2ccc3c(c2)OCO3)cc1 | -0.01 | i
CCS(=O)(=O)Nc1ccc(C(=O)NCCSc2ccccc2)cc1 | -2.77 | i
Cc1ccc(S(=O)(=O)N2CCOCC2)cc1NC(=O)COC(=O)C1COc2ccccc2O1 (stereo not drawn) | 2.27 | i
CSc1ccc(Cl)c(C(=O)NCCOc2cc(C(C)C)ccc2C)c1 | -1.22 | i
Cc1cc(=O)[nH]c(SCCOc2cccc(C(F)(F)F)c2)n1 | 1.49 | i
Cc1ccc2c(c1)C=CC(C)N2C(=O)c1ccccc1 (stereo not drawn) | -0.77 | i
COC(=O)c1ccc(C(NC(=O)OCc2ccccc2)/C(C)=C/[C@@H](C)C(=O)NCc2ccc(-c3ccccc3)cc2)cc1 (stereo partly drawn) | 0.86 | i
COc1cccc(/C=C/C(=O)c2cccc([N+](=O)[O-])c2)c1 | 0.19 | i
COc1cccc(OCc2cc(/C=N/NC(=O)c3ccn[nH]3)ccc2OC)c1 | -2.84 | i
O=C(Cc1ccc(Cl)cc1)Nc1ccc(-c2nnc(-c3ccco3)o2)cc1 | -0.35 | i
C/C(=N/NC(=O)C1CC1(c1ccccc1)c1ccccc1)c1cccs1 (stereo not drawn) | -0.7 | i
CCOC(=S)SCC(=O)N1CCc2ccccc2C1C1C(=O)CCCC1=O (stereo not drawn) | 0.03 | i
CCC1C(=O)C(CC)C(c2ccccc2)NC1c1ccccc1 (stereo not drawn) | 1.01 | i
COC(=O)c1cc2nc(-c3ccccc3)cc(C(F)(F)F)n2n1 | 1.44 | i
O=C(OCn1cncn1)c1ccc(Cl)cc1Cl | 1.57 | i

Source: PubChem (Johns Hopkins Ion Channel Center)
